High-throughput results deposited in PubChem BioAssay by several laboratories.
Mtb betalactam = beta-lactam sensitization of Mtb H37Rv. inhibition, % at 25 µM. AID 434955. M. tuberculosis H37Rv growth with meropenem, percent inhibition; hits of this screen are not shown here. hit rate 0.27% among 330,000;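 active means about 74% or more and at least 40 points above the plate without the antibiotic, then above 30% in a dose series; inconclusive means first-round hits that could not be retested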;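 further: growth measured after seven days incubation then overnight dye step; 0% = bacteria only wells and 100% = bacteria with antibiotic; twin plates without the antibiotic show which effects depend on it; some results filed as inactive read as strong as hits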
Mtb growth = M. tuberculosis H37Rv growth inhibitors, H37Rv strain (AID 1626) | inhibition, % at 10 µM; hits with a dose series show IC50 in µM | M. tuberculosis H37Rv growth inhibition; higher % means a stronger effect | hit rate 0.95% among 220,000;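 active means confirmed in a dose series; inconclusive means inhibition above 80% but not taken into the dose series; inactive means below 80% or under 30% at every dose of the series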;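 further: bacteria incubated seven days before Alamar blue readout; 0% = bacteria only wells and 100% = bacteria with antibiotic wells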
RecA intein inh = blocks M. tuberculosis RecA intein splicing | P9WHJ3 | cell-free RecA intein splicing, fluorescence | inhibition, %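 (about 9 µM by stock and volumes)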 | hit rate 0.75% among 290,000 | AID 2221; in the data active means inhibition above about 30%; inconclusive means no clear call, values can overlap the other calls;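 further: 0% = vehicle wells and 100% = reference inhibitor control wells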
Target sequence (P9WHJ3 whole entry, looked up): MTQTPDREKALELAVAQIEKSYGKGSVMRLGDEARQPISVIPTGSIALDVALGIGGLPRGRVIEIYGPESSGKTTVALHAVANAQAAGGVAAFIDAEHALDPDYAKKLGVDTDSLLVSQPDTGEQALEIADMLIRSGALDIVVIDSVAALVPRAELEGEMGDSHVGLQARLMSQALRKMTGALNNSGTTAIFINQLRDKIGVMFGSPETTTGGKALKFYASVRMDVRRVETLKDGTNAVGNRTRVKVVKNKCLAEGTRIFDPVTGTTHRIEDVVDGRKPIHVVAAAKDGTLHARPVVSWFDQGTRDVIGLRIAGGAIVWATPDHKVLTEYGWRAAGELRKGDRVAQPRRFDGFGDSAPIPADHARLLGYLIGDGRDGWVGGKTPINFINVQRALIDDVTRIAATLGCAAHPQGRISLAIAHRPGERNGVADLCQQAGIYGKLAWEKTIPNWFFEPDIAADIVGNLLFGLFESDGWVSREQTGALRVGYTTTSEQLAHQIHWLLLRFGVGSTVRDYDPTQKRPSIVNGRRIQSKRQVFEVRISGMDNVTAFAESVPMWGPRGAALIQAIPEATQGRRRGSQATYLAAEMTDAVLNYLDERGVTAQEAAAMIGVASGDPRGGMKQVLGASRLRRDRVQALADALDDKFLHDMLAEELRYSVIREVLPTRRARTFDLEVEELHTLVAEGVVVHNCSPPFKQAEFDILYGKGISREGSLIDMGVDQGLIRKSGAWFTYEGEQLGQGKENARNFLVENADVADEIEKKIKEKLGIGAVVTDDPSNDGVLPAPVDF
Arbovirus anti = antivirals against arbovirus infection | arbovirus infection cell-based antiviral screen | inhibition, % at 10 µM | hit rate 0.37% among 200,000 | AID 1251;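 active means inhibition from about 30%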;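 further: bluetongue infection of BSR cells; cell survival read as ATP light after 72 h; 0% = infected wells without compound and 100% = uninfected wells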
YopH PTP inh = blocks Yersinia enterocolitica YopH tyrosine phosphatase; fluorescence Ex485/Em525; inhibition, %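 (about 10 µM by stock and volumes)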; hit rate 0.16% among 140,000; AID 898;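 active means inhibition of 50% or more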;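 further: controls were vehicle for no effect and minimum signal wells for full effect; inactives centre near -20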
Arbovirus anti repeat = further read-out of Arbovirus anti, marked with its call; inhibition, %; measured here: 10K subset replicate screen; many hits read low in the repeat;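 first of two repeat runs on a subset; 0% = infected and 100% = uninfected wells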
The depositor's hits bear a star; ? = inconclusive; · = no result given. Only part of the results is shown, so the mix of outcomes need not match the whole.

SMILES	Mtb betalactam	Mtb growth	RecA intein inh	Arbovirus anti	YopH PTP inh	others
N#Cc1cn(CCOC(=O)c2cccc(C(F)(F)F)c2)c(=O)[nH]c1=O	1	3%	3.6	0	·
COc1c2c(cc3c1OCO3)CC[N+](C)=C2	-1	-10%	-1.1	10	·
CC(C)CC(=O)N1CCN(C(=O)c2ccco2)CC1	0	2%	0.8	18	·
CCC(C)(C)NC(=O)CN(C(=O)CCC(=O)Nc1nccs1)c1cccc(C)c1	-2	·	-1.9	·	·
Cc1cc(-n2c(C)cc(C(=O)COc3ccc4ccc(=O)oc4c3)c2C)no1	99	8.1µM*	-1.0	-8	0
COc1ccc(/C=N/OC(=O)Nc2ccccc2)cc1[N+](=O)[O-]	-11	4%	-0.5	-2	-21
COc1ccc2c(c1)c(/C=N/Nc1ccc(C(=O)O)cc1)c(C)n2C	10	0%	·	·	·
O=C(Nc1ccc(-c2nc3ccccc3o2)cc1)c1ccc(N2C(=O)C3C4C=CC(C4)C3C2=O)cc1 (centres undefined)	-5	3%	4.8	2	-18
COc1cccc(NC(=O)CSc2ccc3nnc(-c4ccccn4)n3n2)c1	-4	·	1.7	·	·
CNC(=O)/C(C#N)=C/c1cc(C)n(-c2ccc(N3CCOCC3)cc2)c1C	-10	-8%	-1.5	·	·
O=c1c(-c2nc3ccccc3s2)cccn1Cc1ccccc1	3	-1%	-42	-9	-30
O=C(Nc1cccc(Cl)c1)Nc1ccccc1NS(=O)(=O)c1cccs1	-2	-1%	15	11	-47
COc1ccc(-n2nnc3c(SCC(=O)c4ccccc4)ncnc32)cc1	13	6%	-0.2	10	-23
CCN(C(=O)CSc1nnc(Nc2ccccc2C)s1)C1CCS(=O)(=O)C1 (centres undefined)	-4	-3%	1.6	-4	-22
O=C(N/C(=C\c1ccc([N+](=O)[O-])cc1)C(=O)N1CCOCC1)c1ccccc1	-2	-9%	·	-2	·
CCCN1C(=O)/C(=C\C=C2/C=CN(CC)c3ccccc32)SC1=S	21	11%	-1.9	-1	10
CCCC1(C(=O)OCC)NC(c2ccc(OC)cc2OC)C2C(=O)N(c3ccccc3)C(=O)C21 (centres undefined)	-10	-8%	1.4	6	32
Cc1ccc(C(=O)Nn2cnnc2)cc1S(=O)(=O)N1CCOCC1	-2	-4%	-2.9	·	·
O=C(Nc1ccc2nc3n(c(=O)c2c1)CCCC3)c1cccc([N+](=O)[O-])c1	-3	-2%	-3.2	-16	-23
Cc1nc2ccc(C(=O)Nc3ccc4nc[nH]c4c3)cc2[nH]1	-5	·	4.0	·	·
COc1ccc(N2C(=O)CSC2c2ccccc2)cc1 (centres undefined)	1	·	0.6	·	·
COCCOC(=O)c1[nH]c2c(c1C)C(=O)CC(c1ccccc1)C2 (centres undefined)	6	·	4.8	-20	-44
CCOc1ccc(NC(=O)C2CCC(CNc3c(N4CCC(C)CC4)c(=O)c3=O)CC2)cc1 (centres undefined)	-3	-2%	-1.6	·	·
O=c1c2ccccc2nc(C[n+]2ccccc2)n1-c1cccc(C(F)(F)F)c1	-1	-6%	-1.1	0	·
CCNC(=S)Nc1ccc2ncoc2c1	-6	-6%	-3.5	0	·
CC(=O)c1c(C)n(-c2ccccc2)c2ccc(OCC(N)=O)cc12	9	-8%	13	-12	·
O=C(CC12CC3CC(CC(C3)C1)C2)Nc1cccc2ncccc12	-2	-8%	3.0	4	-29
CCN(C(=O)C1CCCN1S(=O)(=O)c1ccc2c(c1)n(C)c(=O)c(=O)n2C)c1ccccc1 (centres undefined)	?	·	2.4	·	·
CCOC(=O)CSc1nnc(Cc2ccccc2)n1-c1cccc(Cl)c1	11	-8%	3.2	-6	15
Fc1ccccc1-c1nc(NC2CCCC2)c2ccccc2n1	13	·	6.6	·	·
O=C(COc1ccc2ccccc2c1)Nc1nnc(-c2ccco2)s1	-11	-4%	-0.9	·	·
Cc1ccc(S(=O)(=O)NCc2ccccn2)c(C)c1	-5	·	0.1	·	·
O=C1CCC(=O)N1CNc1ccc(Oc2ccccc2)cc1	99	2.6µM*	3.9	-3	-26
COc1ccc(Nc2nc3c(C)cccn3c(=O)c2C=NCc2ccccc2)cc1	7	10%	-0.9	3	·
CCOC(=O)Nc1ccc(Oc2ccccc2)cc1	81	8%	11	-9	24
CC(=O)c1ccc(OCc2cc([N+](=O)[O-])cc3c2OCOC3)cc1	-4	3%	3.6	-1	·
Brc1ccc(CSc2ccc(-c3ccco3)nn2)cc1	9	1%	-2.2	-6	·
COc1cc(OC)cc(-c2nc3nc(C)c(CCC(=O)NCC(OC)OC)c(C)n3n2)c1	-4	-4%	3.1	4	·
CC(C)(C)NC(=O)CSc1ncnc2c1cnn2-c1ccccc1	4	·	0.7	·	·
CCN(CC)CCCNc1nc2ccccc2[nH]1	-2	6%	0.9	4	-25	Arbovirus anti repeat=5

The last 5 entries of the part before are carried over, then new ones follow.
SMILES	Mtb betalactam	Mtb growth	RecA intein inh	Arbovirus anti	YopH PTP inh	others
CC(=O)c1ccc(OCc2cc([N+](=O)[O-])cc3c2OCOC3)cc1	-4	3%	3.6	-1	·
Brc1ccc(CSc2ccc(-c3ccco3)nn2)cc1	9	1%	-2.2	-6	·
COc1cc(OC)cc(-c2nc3nc(C)c(CCC(=O)NCC(OC)OC)c(C)n3n2)c1	-4	-4%	3.1	4	·
CC(C)(C)NC(=O)CSc1ncnc2c1cnn2-c1ccccc1	4	·	0.7	·	·
CCN(CC)CCCNc1nc2ccccc2[nH]1	-2	6%	0.9	4	-25	Arbovirus anti repeat=5
Cc1ccccc1-n1nnnc1SC(C)C(=O)Nc1ccc(N2CCN(C)CC2)cc1 (centres undefined)	-7	·	0.1	·	·
COC(=O)CSc1nnc(CNC(=O)c2ccco2)n1-c1ccc(F)cc1	-15	-9%	-6.2	2	-24
O=C(CSc1nnnn1-c1ccc2c(c1)OCCO2)c1cccc2c1OCCO2	-7	-5%	1.4	11	-36
CC(=O)c1c(C)[nH]c(C(=O)OCc2nnc(-c3ccccc3)o2)c1C	-3	4%	-1.4	14	15
COc1ccc(NC(=O)Nc2ccc3c(c2)OCO3)c(C)c1	-3	·	-4.9	·	·
O=C(O)c1c2c(nc3ccccc13)/C(=C/c1c(F)cccc1F)CCC2	5	·	0.2	·	·
O=C(NC(N1CCOCC1)C(Cl)(Cl)Cl)c1ccccc1Cl (centres undefined)	-4	0%	2.2	3	·
Cc1cc(C(=O)COC(=O)[C@H](C)NC(=O)c2ccco2)c(C)n1Cc1ccco1	5	3%	1.3	4	·
COc1cc(OC)cc(-c2cc3nc(C)c(CCC(=O)Nc4nc(C)cs4)c(C)n3n2)c1	0	·	0.0	-3	-6
CCCCCNC(=O)CCc1ccccc1	-2	-9%	5.5	-3	4
CC1COc2ccccc2N1S(=O)(=O)c1ccc(Cl)cc1 (centres undefined)	3	-8%	5.9	-2	·
CCOC(=O)c1ccc(NC(=O)c2nccnc2C(=O)O)cc1	-3	61%	-2.3	-3	-17	Arbovirus anti repeat=1
CC(C)Nc1nnc(SC(C)C(=O)Nc2ccc(Cl)cn2)s1 (centres undefined)	2	3%	-1.0	9	·
Cc1nnc(SCC(=O)Nc2c(Cl)cccc2Cl)n(N)c1=O	0	·	-0.8	·	·
Cc1ccc(OC2CCN(C(=O)C3CCC(=O)N(C4CC4)C3)CC2)cc1 (centres undefined)	-2	·	1.6	·	·
Cc1nn(Cc2ccccc2Cl)c(C)c1C(=O)OCC(=O)NC1CCS(=O)(=O)C1 (centres undefined)	5	-6%	1.8	-1	-24
COc1ccc(C=O)cc1COc1ccc(Cl)cc1[N+](=O)[O-]	2	6%	0.5	-2	-38
Clc1ccccc1-c1ncc2ccccn12	3	9%	4.6	2	·
NC(=O)Cn1c(=O)n(CCCC(=O)NC2CCN(Cc3ccccc3)CC2)c(=O)c2ccccc21	-4	0%	-0.6	8	-25
CCOc1ccc(S(=O)(=O)NCCCn2ccnc2)cc1	-1	·	-2.0	·	·
CCn1nnnc1SCC(=O)Nc1ccc(OC)cc1	-8	6%	1.9	-2	-16
NC(=O)C[C@@H]1NC(=O)c2cc([N+](=O)[O-])cc(F)c2NCCCC[C@@H](C(N)=O)NC(=O)[C@H](CO)NC1=O	·	-1%	·	-1	-7
Cc1ccc(S(=O)(=O)N2CCCCC2)cc1C(=O)Nc1ccc(S(=O)(=O)Nc2ncccn2)cc1	-3	-9%	-0.2	·	·
NS(=O)(=O)c1ccc(CCNC(=O)c2ccc(Cn3c(=O)[nH]c4ccccc4c3=O)cc2)cc1	0	-3%	0.3	3	·
CC(C)NC(=O)C1CC=CCC1C(=O)O (centres undefined)	-1	2%	-1.2	-1	-25
COc1ccc(-n2c(O)c(/C(C)=N/N3CCCCCC3)c(=O)[nH]c2=O)cc1	-7	-1%	-1.9	·	·
Cc1ccc(O)c(C(=O)c2cc(C#N)c(=O)n(CC3CCCO3)c2)c1 (centres undefined)	-6	-22%	-5.3	4	22
O=C(c1cccc(-c2ccc(O)cc2)c1)N1CCN(c2ccc(F)cc2)CC1	-3	-8%	-1.1	5	·
CC(=O)CCc1oc2ccc(C)cc2c1Cc1ccccc1	10	·	19	·	·
Cc1ccc(S(=O)(=O)c2nc(S(C)(=O)=O)sc2N(C)C)cc1	0	-8%	0.1	0	-22	Arbovirus anti repeat=-4
CC(C)c1ccc(NC(=O)NCc2cccnc2)cc1	-4	·	-2.4	·	·
CN(C)c1nc(SCCOC(=O)c2ccccc2)nc(N(C)C)n1	12	-2%	·	2	-13
O=C(COC(=O)c1ccccc1NC(=O)c1ccco1)NC1CCCCC1	40	17%	·	2	4
O=C(c1nc2ccccn2c1CNCCCn1cccn1)N1CCCC1	4	-1%	1.7	6	·
CN(C)c1ccc(/C=N/NC(=O)c2cnc3ccccc3c2)cc1	4	4%	12	·	·
COc1ccc(OCCn2nnc(-c3ccc(Cl)cc3)n2)cc1	6	1%	1.6	5	-14
COC(=O)c1cc(OC)c(OC)cc1NC(=O)C(C)c1ccc([N+](=O)[O-])cc1 (centres undefined)	3	-1%	3.8	6	6
CCCc1cc2c(=O)n(NC(=O)c3nn(C)cc3[N+](=O)[O-])c(C)nc2s1	3	-2%	-1.1	0	-3
COc1ccc(OCCCCN2CCC(C)CC2)cc1	-5	·	-1.3	·	·
S=c1[nH]nc(-c2ccccc2)n1CC1CCCO1 (centres undefined)	-6	2%	·	1	6

Some of these compounds in order of length of the SMILES, high to low:
SMILES	Mtb betalactam	Mtb growth	RecA intein inh	Arbovirus anti	YopH PTP inh	others
O=C(COC(=O)c1ccccc1NC(=O)c1ccco1)NC1CCCCC1	40	17%	·	2	4
CN(C)c1ccc(/C=N/NC(=O)c2cnc3ccccc3c2)cc1	4	4%	12	·	·
CN(C)c1nc(SCCOC(=O)c2ccccc2)nc(N(C)C)n1	12	-2%	·	2	-13

(next part)
SMILES	Mtb betalactam	Mtb growth	RecA intein inh	Arbovirus anti	YopH PTP inh	others
COC(=O)c1sc(SC)c(S(=O)(=O)C(C)C)c1N/N=C(\C#N)C(=O)c1ccccc1	-6	-11%	5.1	·	·
O=C(Nc1ccnc(-c2ccncc2)n1)c1ccc(F)cc1	4	-12%	·	-1	·
CCOC(=O)C1CCCN(c2cc(=O)n(C3CCCCC3)c(=O)[nH]2)C1 (centres undefined)	-6	-9%	2.2	1	·
O=C(CCn1c(=O)oc2ccccc21)NCCN1CCOCC1	3	-4%	0.9	-1	·
O=C(c1ccco1)N1CCN(C(=O)c2cc3c(s2)-c2ccccc2OC3)CC1	-2	0%	-13	9	-7
CC1CCCCC1NC(=O)CCNC(=O)N1CC(=O)Nc2ccccc21 (centres undefined)	5	·	-2.2	·	·
O=C(Nc1ccccc1C(=O)N/N=C/c1ccco1)c1ccccc1	9	2%	-1.8	5	3
COCC1CCN(Cc2cn[nH]c2-c2ccc(OC)cc2F)C1 (centres undefined)	-8	-7%	4.1	2	·
COc1ccc(S(=O)(=O)Nc2cc(C)ccn2)cc1	8	-3%	-0.7	10	-20
O=C1c2ccc(Oc3ccc([N+](=O)[O-])cc3)cc2C(=O)N1CCO	1	·	-1.9	·	·
Cc1cccc(N2CCN(C(=O)Cn3c(=O)[nH]c4ccsc4c3=O)CC2C)c1 (centres undefined)	-7	-6%	-2.3	0	-2
CC1CCc2sc3ncnc(N4CCOCC4)c3c2C1 (centres undefined)	9	-6%	1.7	4	-35
C#CCN(C#N)c1nc(NCC)nc(NC(C)C)n1	5	3%	1.5	-6	-38
Brc1ccccc1-c1nnc(CSc2nncn2-c2ccccc2)o1	-3	-10%	3.8	1	-5
CC(=O)C1C(c2ccc(C)cc2)c2c(noc2C)CC1(C)O (centres undefined)	-5	1%	-0.1	-2	·

Grouped by structure: those above containing a CF3 group
SMILES	Mtb betalactam	Mtb growth	RecA intein inh	Arbovirus anti	YopH PTP inh	others
N#Cc1cn(CCOC(=O)c2cccc(C(F)(F)F)c2)c(=O)[nH]c1=O	1	3%	3.6	0	·
O=c1c2ccccc2nc(C[n+]2ccccc2)n1-c1cccc(C(F)(F)F)c1	-1	-6%	-1.1	0	·
